Bioassay records: PubChem, several laboratories
RGS16-Gao: modulators of RGS16 binding to Galphao, primary screen, biochemical, human proteins, multiplexed bead flow cytometry. bead-based flow cytometry RGS16-Galphao binding, fluorescence; actives lie on both sides. binding response (% of control), % at 10 µM. 0.38% of 220,000 active. AID 1441, 2008;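 active = below 25% or above 175%, edge rows of some plates excepted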;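 also: Galphao activated by GDP with aluminum fluoride before binding; 100% = wells without compound and 0% = beads without RGS; some results beyond the cut were filed as inactive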
Target sequence (O15492 whole entry, looked up): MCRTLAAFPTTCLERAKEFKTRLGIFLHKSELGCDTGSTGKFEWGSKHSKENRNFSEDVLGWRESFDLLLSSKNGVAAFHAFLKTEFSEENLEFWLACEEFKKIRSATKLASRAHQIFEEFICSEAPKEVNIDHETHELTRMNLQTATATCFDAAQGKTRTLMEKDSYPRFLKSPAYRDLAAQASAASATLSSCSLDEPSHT
Target sequence (P09471 whole entry, looked up): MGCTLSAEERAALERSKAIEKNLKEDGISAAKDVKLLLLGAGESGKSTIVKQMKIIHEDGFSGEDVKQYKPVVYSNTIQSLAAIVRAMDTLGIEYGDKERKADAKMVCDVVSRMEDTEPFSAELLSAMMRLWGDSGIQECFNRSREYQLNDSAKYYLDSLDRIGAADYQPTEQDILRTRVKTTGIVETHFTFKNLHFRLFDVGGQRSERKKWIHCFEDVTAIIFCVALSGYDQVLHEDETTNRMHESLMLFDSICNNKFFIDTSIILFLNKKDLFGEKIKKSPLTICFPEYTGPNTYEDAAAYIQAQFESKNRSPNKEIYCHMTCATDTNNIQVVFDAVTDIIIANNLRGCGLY
Insulin prom inh: inhibitors of insulin promoter-driven GFP, primary screen, imaging, TRM-6 cells (human fetal islet line), eGFP reporter, cell count; reporter expression induced with tamoxifen; inhibition, % at 2 µM; 0.9% of 130,000 active; AID 1273, 2008;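 active = inhibition above the mean plus 3 SD, with well images judged a real hit on visual review, cut at about 60% in these data, passing the limit was not always enough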
GALR2 agonist: GALR2 receptor agonists, primary screen, cell-based. activation, %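 (tested at 5 µM)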. GALR2-expressing cells, agonist activation read-out. AID 803, 2007. Galanin receptor type 2 (Homo sapiens), O43603. 0.48% of 140,000 active;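 active = above mean plus 3 SD of all compounds, about 5% in these data, not always enough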;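 also: 0% = vehicle buffer wells and 100% = reference agonist at full effect; tested in CHO reporter cells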
Target sequence (O43603 whole entry, looked up): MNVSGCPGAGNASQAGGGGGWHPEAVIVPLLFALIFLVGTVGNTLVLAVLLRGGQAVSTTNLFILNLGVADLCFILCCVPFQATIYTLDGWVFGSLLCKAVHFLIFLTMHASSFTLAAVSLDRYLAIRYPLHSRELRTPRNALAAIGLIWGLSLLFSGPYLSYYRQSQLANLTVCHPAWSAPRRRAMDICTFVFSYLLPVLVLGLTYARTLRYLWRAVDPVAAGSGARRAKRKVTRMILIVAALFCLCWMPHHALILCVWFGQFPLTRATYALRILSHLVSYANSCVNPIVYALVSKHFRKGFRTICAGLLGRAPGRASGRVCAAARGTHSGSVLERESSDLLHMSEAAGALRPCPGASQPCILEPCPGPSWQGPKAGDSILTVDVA
PKD1 inh: inhibitors of human PKD1 kinase, biochemical, fluorescence polarization | Serine/threonine-protein kinase D1 (Homo sapiens), Q15139 | PKD1 kinase fluorescence polarization assay | inhibition, %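 (about 10 µM by stock and volumes)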 | 0.056% of 200,000 active | AID 797, 2007;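 active = inhibition of 50% or more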;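 also: controls were vehicle for no effect and a reference inhibitor for full effect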
HSV replic up: enhancers of HSV replication in host cells, fold increase, host cell viability; 0.005% of 220,000 active; HSV replication augmentation in cells; maximum fold increase;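 active = peak rise of 1.5-fold or more in the series; tested in PC3 cells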;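 also: first round at 10 µM; read as green reporter fluorescence; hits show the peak of a series up to 25 µM; 1 = signal of infected wells without compound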
Insulin prom inh cell count: recorded beside Insulin prom inh, whose call it bears; normalized cell count, %; measured here: cell count, toxicity; reference of the scale not given here;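 cells exposed to compound for 48 h; stained nuclei by imaging scaled within each plate; lower means fewer cells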
HSV replic up primary fold: also measured in HSV replic up; calls as there; fold increase; compound at 10 µM; measured here: primary screen fold increase 10 uM; tested in PC3 cells;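 GFP signal in the first replicate; 1 = infected wells without compound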
An asterisk follows results filed as active; i = inactive; nt = not tested or not shown.

cpd	mol	RGS16-Gao	Insulin prom inh	Insulin prom inh cell count	GALR2 agonist	PKD1 inh	HSV replic up	HSV replic up primary fold
1	COc1ccc(N(C)S(=O)(=O)c2cccc(C(=O)NCC3CCCO3)c2)cc1 (configuration not stated)	105	-27	73	0.1	6	i	0.83
2	Cc1nc(SCc2ccc(OCCC(C)C)cc2)n[nH]1	99	nt	nt	nt	1	i	0.75
3	Cc1ccc(C)c(NCC(O)c2ccccc2)c1 (configuration not stated)	99	-21	123	nt	-2	i	0.94
4	CCNC(=S)Nc1ccc(OC(F)(F)F)cc1	101	nt	nt	nt	2	i	1
5	Clc1ccc(-c2ccc(/C=N/Nc3cc(N4CCOCC4)nc(N4CCOCC4)n3)o2)cc1	132	-11	149	30*	-1	i	0.89
6	Cc1ccc(/C=C/C(=O)Nc2cc(=O)n(C)c(=O)n2C)o1	87	-9	87	-1.4	-2	i	1.2
7	O=C(O)c1ccc(CSc2nnnn2C2CCCCC2)cc1	102	-38	60	-0.8	-4	i	1
8	Cc1cc(C)nc(SCC(=O)NC2=NC(=O)C(C)S2)n1 (configuration not stated)	87	7	93	-4.8	-10	i	1.3
9	O=[N+]([O-])/C(C=Nc1ccccc1O)=C\Nc1ccccc1O	107	nt	nt	nt	nt	i	0.9
10	c1cncc(-c2nnc(SCCSc3nnc(-c4cccnc4)o3)o2)c1	nt	-42	102	-0.8	-10	nt	nt
11	O=C(Cc1cccs1)NCCc1cn2ccccc2n1	99	nt	nt	nt	-3	i	0.72
12	C=CCOc1c(Cl)cc(CNn2cn[nH]c2=S)cc1OC	97	nt	nt	nt	0	i	0.85
13	CC(C(=O)N1CC2(C)CC1CC(C)(C)C2)N1C(=O)c2ccccc2C1=O (configuration not stated)	97	0	109	-1.2	-7	i	0.9
14	Cc1nn(C(=O)c2ccco2)c(C)c1Sc1ccc([N+](=O)[O-])cc1	106	nt	nt	-1.0	-15	i	0.91
15	COc1cc(NC(=O)c2ccc(Br)o2)c(C(=O)O)cc1OC	100	-14	116	-3.1	-6	i	0.99
16	Cc1cc(O)cc2c(=O)c3ccccc3sc12	99	nt	nt	nt	-1	i	0.99
17	Cc1ccc(NC(=S)NNC(=O)c2ccco2)cc1	96	-9	87	-4.6	10	i	1.2
18	COc1cccc(CC(=S)N2CCOCC2)c1	100	-52	119	-0.5	0	i	0.88
19	CN(C)c1ccc(C(O)P(=O)(OCc2ccccc2)c2ccc(N(C)C)cc2)cc1 (configuration not stated)	96	nt	nt	nt	nt	i	0.96
20	Cc1cc[n+](-c2nc([O-])sc2/C=N/Nc2ccc([N+](=O)[O-])cc2)cc1	69	-4	91	0.2	3	i	1
21	Cc1nc2ccc(C(=O)Nc3cccc([N+](=O)[O-])c3)cc2s1	100	nt	nt	nt	0	i	1.1
22	Cc1ccccc1C(=O)Nc1cc(S(=O)(=O)N2CCCCC2)ccc1N1CCN(C)CC1	104	17	84	0.1	-1	i	0.95
23	O=C(Nc1cccnc1)c1ccccc1-c1nc(-c2ccccc2F)no1	97	19	91	-1.9	0	i	0.93
24	Cn1c(C2CCCN2C(=O)OC(C)(C)C)n[nH]c1=S (configuration not stated)	101	7	54	0.3	-13	i	1
25	CCOc1ccc(NC(=O)c2cccc3c2C(=O)N(CCOC)C3)cc1	100	-33	102	-0.5	-9	i	0.94
26	O=C(/C=C/c1ccco1)N(Cc1cccc(Cl)c1)C1CCS(=O)(=O)C1 (configuration not stated)	98	nt	nt	nt	nt	i	1.1
27	O=C(O)c1cnn2c(-c3ccc(F)cc3)ccnc12	99	nt	nt	nt	-7	i	0.99
28	CCOCCCNCc1ccc(Cl)cc1	103	-4	129	0.4	-8	i	1
29	Cc1ccc(NC(=O)N2CCC(C(=O)Nc3ccc(C)cc3C)CC2)cc1	100	43	81	-1.2	0	i	1
30	O=C(NCc1ccc2c(c1)OCO2)c1cnc2n(c1=O)CCS2	98	nt	nt	-2.7	2	i	0.77
31	CCn1c(Cc2ccccc2)nnc1SCC(=O)NC(C)(C)C	101	19	92	-2.2	-1	i	0.92
32	NC(=O)COC(=O)c1cc(=O)[nH]c2ccccc12	94	nt	nt	nt	nt	i	0.9
33	Cc1cccc(/C(N)=N/OC(=O)CCCN2C(=O)c3ccccc3C2=O)c1	105	-77	107	-4.3	-1	i	0.87
34	CCOC(=O)C1CCN(c2cc(=O)n(-c3ccccc3Cl)c(=O)[nH]2)CC1	100	0	118	-2.1	-3	i	0.86
35	CC(C)CN(C(=O)COC(=O)CNC(=O)c1ccc(Cl)cc1)C1CCS(=O)(=O)C1 (configuration not stated)	99	nt	nt	nt	5	i	0.99
36	CC(=O)c1cc(C(=O)N2CCc3c([nH]c4ccccc34)C2CC(C)C)[nH]n1 (configuration not stated)	100	nt	nt	nt	-2	i	0.96
37	Cc1cc(NC(=O)CSc2nc(-c3cccnc3)ccc2C#N)no1	101	nt	nt	-1.1	7	i	0.84
38	CCC(=O)N1C(=O)CCN(C(C)=O)c2ccccc21	105	36	130	1.1	-2	i	0.88
39	CC(C)C(NC(=O)c1ccccc1)C(=O)NCc1ccccn1 (configuration not stated)	102	-31	64	-1.5	-12	i	0.99
40	CCN1CCN(CC(=O)N2N=C(c3cccs3)CC2c2ccc(OC)c(OC)c2)C(=O)C1=O (configuration not stated)	102	20	117	nt	-3	i	0.95

Sorted by value in GALR2 agonist (rising): three from the list above.
| no. | Compound | GALR2 agonist |
| --- | --- | --- |
| 23 | O=C(Nc1cccnc1)c1ccccc1-c1nc(-c2ccccc2F)no1 | -1.9 |
| 24 | Cn1c(C2CCCN2C(=O)OC(C)(C)C)n[nH]c1=S (configuration not stated) | 0.3 |
| 38 | CCC(=O)N1C(=O)CCN(C(C)=O)c2ccccc21 | 1.1 |

(next part)
cpd	mol	RGS16-Gao	Insulin prom inh	Insulin prom inh cell count	GALR2 agonist	PKD1 inh	HSV replic up	HSV replic up primary fold
41	COc1ccccc1CNC(=O)C1COc2ccccc2O1 (configuration not stated)	101	nt	nt	-2.9	-8	i	1
42	CCOC(=O)N1C/C(=C\c2ccccc2)C(=O)/C(=C/c2ccccc2)C1	104	nt	nt	nt	nt	i	0.62
43	CC(C)C[C@H](NC(=O)c1[nH]cnc1C(=O)Nc1ccc(Cl)cc1)C(=O)OC(C)(C)C	102	nt	nt	nt	nt	i	0.77
44	CC(=O)Nc1ccc(C(=O)CS(=O)(=O)c2ccc(C)cc2)cc1	98	19	25	0.0	-5	i	0.95
45	COc1ccc(OC)c(NC(=O)CCN2CC(C)OC(C)C2)c1 (configuration not stated)	99	nt	nt	-3.2	-9	i	1.1
46	C=CCSC1=Nc2cc(OC)c(OC)cc2C2=NC(=O)CN12	102	nt	nt	nt	8	i	0.83
47	COc1cc(C(=O)Nc2ccc(Cl)c([N+](=O)[O-])c2)cc(OC)c1OC	108	11	129	nt	-1	i	0.85
48	O=C(O)c1csc(N/N=C/c2ccc(Br)cc2)n1	98	0	102	nt	7	i	1
49	O=S(=O)(O)C1CCNCC1	97	14	101	-0.8	-19	nt	nt
50	COc1cc(COc2ccc3c(C)c(Cc4ccccc4)c(=O)oc3c2)cc(OC)c1OC	101	30	46	-1.8	3	i	0.94
51	CSc1ccccc1NC(=O)CN(C)CC(=O)Nc1c(F)cccc1F	105	-13	157	-0.7	-4	i	0.98
52	CCCCCCCCCCCCCCCC[n+]1ccc(C(N)=O)cc1	103	nt	nt	0.3	-6	i	0.51
53	COc1ccc(NC(=O)NN2CCOCC2)cc1OC	109	50	115	nt	-1	i	0.86
54	NS(=O)(=O)c1cccn1-c1ncc(C(F)(F)F)cc1Cl	105	7	73	-1.7	-7	i	0.99
55	Cc1ccc2[nH]c3c(c2c1)CN(C(=O)CN1CCN(c2cccc(C)c2C)CC1)CC3	95	10	135	-2.1	0	i	0.94
56	Cc1nc2ccccc2n1C1CCN(CC(=O)NCc2ccc(F)cc2)CC1	138	-70	114	-1.7	-8	i	0.8
57	CC1(C)C(=O)OC(/C=C\c2ccccc2)C(C)(C)C1=O (configuration not stated)	99	-6	130	nt	5	i	1.2
58	CNc1nc(-c2ccc3c(c2)CCN3C(=O)CC(C)(C)C)c(C)s1	99	31	127	nt	-3	i	0.88
59	CCOC(=O)N1CCC(NC(=O)c2cnn3cccnc23)CC1	102	61	41	-2.3	-10	i	0.99
60	CSc1ccccc1C(=O)NCCCOC(C)C	100	34	100	-1.0	-4	i	0.89
61	Cn1cc(CN2CCCC(C(=O)c3cccs3)C2)c(-c2cccc(Cl)c2)n1 (configuration not stated)	107	nt	nt	nt	3	i	0.92
62	COc1ccc(N(CC(=O)Nc2ccc3c(c2)OCO3)S(=O)(=O)c2c(C)nn(C)c2C)cc1	104	nt	nt	-1.2	5	i	0.97
63	O=c1[nH]c2cc3c(cc2cc1C(c1nnnn1Cc1ccccc1)N1CCCc2ccccc21)OCO3 (configuration not stated)	109	-138	83	-1.3	-4	i	0.77
64	NC(=O)COC(=O)CCSc1ccc(Cl)cc1	102	11	83	nt	3	i	1.1
65	O=C(O)CCNC(=O)C12CC3CC(CC(C3)C1)C2	102	18	83	nt	-1	i	1.1
66	O=C(N/N=C/C=C/c1ccccc1[N+](=O)[O-])c1ccncc1	99	nt	nt	nt	nt	i	0.84
67	O=C(CCc1ccccc1)Nc1ccc2ccccc2n1	95	-82	148	nt	2	i	1.2
68	Cc1cccc(C)c1NC(=O)C1(N(Cc2ccco2)C(=O)CC2NC(=O)NC2=O)CCCCC1 (configuration not stated)	106	nt	nt	-3.1	-7	i	1.1
69	CC(/C=N/NC(=O)c1cnccn1)=C\c1ccco1	98	nt	nt	nt	nt	i	1.3
70	O=C/C(=C\Nc1ccc(Cl)cn1)c1nc2ccccc2o1	119	43	66	-1.0	7	i	1
71	CC1CCCc2sc3nc(NCc4ccco4)n4ncnc4c3c21 (configuration not stated)	98	7	76	-1.1	-2	i	0.99
72	COc1ccc(CCNC(=O)c2ccc3c(c2)OCCO3)cc1	97	nt	nt	nt	-1	i	1
73	O=C(N1CCCCCC1)N1CCN(S(=O)(=O)N2CCOCC2)CC1	104	62	120	-1.3	-4	i	1
74	COCCCNC(=O)COc1ccc(Br)cc1Cl	104	-4	123	1.0	-19	i	0.84
75	Cc1onc(-c2ccccc2)c1C(=O)Nc1nnc(-c2ccncc2)s1	102	-4	97	-2.4	-6	i	1.2
76	O=C(Nc1cccnc1)c1ccc(F)cc1	108	6	115	-0.2	4	i	1
77	Cc1cc(C(=O)OCC(=O)NC(C)c2ccccc2)c(C)o1 (configuration not stated)	109	nt	nt	nt	-8	i	0.96
78	O=C(N/N=C/c1ccccc1OC(=O)c1ccc2c(c1)OCO2)c1ccccc1	104	10	106	-1.2	4	i	0.9
79	C=CCNC(=O)NC(=O)CSc1nc2cc([N+](=O)[O-])ccc2n1-c1cccc(C(F)(F)F)c1	101	10	82	-0.2	8	i	0.86
80	CCCOC(=O)C1C2C=CC3(CN(c4ccc(Cl)c(F)c4)C(=O)C13)O2 (configuration not stated)	98	-210	108	-0.3	-4	i	0.95
81	COc1ccc(-n2c(-c3ccccc3)cc3c2CCCC3=O)cc1	113	35	114	-0.7	-6	i	1.1
82	CCN1CCCC1Cn1cnc2c([nH]c3ccc(C)cc32)c1=O (configuration not stated)	100	nt	nt	-0.5	4	nt	nt
83	Nn1c(SC/C=C/c2ccccc2)nnc1-c1ccco1	105	36	111	-0.7	0	nt	nt
84	O=C(NCc1ccco1)C(=O)c1cn(CC(=O)N2CCCCC2)c2ccccc12	104	-62	100	nt	0	nt	nt
85	COCC(C)NS(=O)(=O)c1ccc(OC)cc1 (configuration not stated)	102	nt	nt	-0.2	-12	i	0.9
86	Cn1c(=O)c2ncn(CC(=O)NCCOc3ccc(C(C)(C)C)cc3)c2n(C)c1=O	98	-24	177	-1.1	-2	i	0.93
87	Cc1c(-c2nc(N)nc(Nc3ccccc3F)n2)oc2ccccc12	101	-14	94	-0.1	7	i	0.77
88	CCN(CC)S(=O)(=O)c1cccc(-c2nnc(SCC(N)=O)n2C)c1	99	nt	nt	nt	-10	i	0.95
89	Cc1oc(-c2ccccc2)cc1C(=O)Nc1cccc(/C=C/C(=O)O)c1	97	nt	nt	nt	-2	i	1.1
90	Cc1cccc(C)c1NC(=O)N1CCN(C2CCCCC2)CC1	112	6	128	-3.2	-7	i	1.1
91	Cc1ccccc1Oc1ncnc2sccc12	103	10	110	-2.2	16	i	1.2
